# High-throughput results deposited in PubChem BioAssay by National Center for Advancing Translational Sciences (NCATS).
# GLA inh pH 4.5: alpha-galactosidase A (human) inhibition, pH 4.5; purified enzyme, 4-MU-alpha-Gal fluorescence, pH 4.5; 230,000 tested, under 10 active; activity change, negative = inhibition, % at 105 µM; inconclusive = small, poorly fitted or top-dose-only inhibition, or a rising curve; inactive = flat fitted curve, though single readings scatter; no compound was filed as active;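 further: 0% = full activity with enzyme and -100% = basal without enzyme; dose as in the result columns while the protocol names 77 µM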
# Rango dissoc inh: prevents RanGTP from dissociating the Rango-importin beta complex; O95149+P62826; Biochemical FRET Rango-importin beta, RanGTP-induced dissociation; Potency, µM (top dose mostly 46.1 µM), for the others: at the highest dose activity change, negative = inhibition; 340,000 tested, 0.071% active; AID 540253; active means falling FRET ratio curve, often poorly fitted, with flat reads before Ran was added; inconclusive means other falling curves, or compound fluorescence or quenching; inactive means flat or rising ratio curve;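 further: potency means the concentration at half of the fitted maximal effect; % of control where 0% means no effect; nearly all actives have a fitted effect of over 45% in size; -100% = wells without RanGTP and RCC1; the record marks most hits as doubtful in a second field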
#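 Rango/importin beta premix (0.1/0.25 uM final), PBS + 1 mM DTT + 0.02% Tween-20 + 0.1% BSA; cpd 5 min RT; FRET pre-read; + RanGTP-RCC1 (0.6 uM Ran, 2 mM GTP, 0.2 uM RCC1); 45 min RT; FRET post-read, ex 430, em 486/530 nm.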
# Rango-impB inh: Rango-importin beta binding inhibition; Q14974; Rango CFP/YFP FRET sensor + importin beta, 45 min; Potency, µM (doses to about 92.2 µM), without a hit: at the highest dose inhibition of complex formation; 340,000 tested, 0.031% active; active = rising FRET ratio curve, often small or poorly fitted; inconclusive = mostly compound fluorescence or quenching in the first reads; inactive = flat curves in all reads;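 further: potency means the concentration at half of the fitted maximal effect; 0% = DMSO wells and 100% = buffer wells lacking importin beta; nearly all actives have a fitted effect of over 15% in size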
# Target sequence (Q14974 whole entry, looked up): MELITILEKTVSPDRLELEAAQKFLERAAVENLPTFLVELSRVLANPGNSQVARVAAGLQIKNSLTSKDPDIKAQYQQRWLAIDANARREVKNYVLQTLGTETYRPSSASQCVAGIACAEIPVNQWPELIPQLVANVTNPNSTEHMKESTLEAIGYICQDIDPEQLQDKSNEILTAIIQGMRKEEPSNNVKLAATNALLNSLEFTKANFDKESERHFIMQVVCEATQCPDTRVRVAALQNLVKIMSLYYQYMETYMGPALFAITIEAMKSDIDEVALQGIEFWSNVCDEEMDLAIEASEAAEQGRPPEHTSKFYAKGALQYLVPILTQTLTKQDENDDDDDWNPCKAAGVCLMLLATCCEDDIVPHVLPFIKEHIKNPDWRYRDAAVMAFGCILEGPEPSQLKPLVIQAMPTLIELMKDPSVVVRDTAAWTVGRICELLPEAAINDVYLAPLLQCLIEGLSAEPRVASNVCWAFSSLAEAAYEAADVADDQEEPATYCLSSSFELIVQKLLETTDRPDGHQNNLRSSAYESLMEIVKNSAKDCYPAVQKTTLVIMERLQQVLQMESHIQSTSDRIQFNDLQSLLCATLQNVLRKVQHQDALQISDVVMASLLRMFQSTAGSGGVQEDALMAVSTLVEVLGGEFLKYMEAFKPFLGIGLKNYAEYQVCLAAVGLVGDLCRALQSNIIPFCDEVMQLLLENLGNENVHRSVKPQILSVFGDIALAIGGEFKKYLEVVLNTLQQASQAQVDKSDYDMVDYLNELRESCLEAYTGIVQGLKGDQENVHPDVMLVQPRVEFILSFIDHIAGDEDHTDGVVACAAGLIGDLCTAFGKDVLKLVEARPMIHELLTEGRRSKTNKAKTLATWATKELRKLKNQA
#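 FRET biosensor Rango (snurportin 1 IBB between N-terminal EYFP and C-terminal Cerulean), 50 nM in PBS/1 mM DTT/0.02% Tween-20/0.1% BSA, preincubated 5 min RT with compound; 0.125 microM importin beta added, 45 min RT, CFP/YFP FRET ratio read.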
# miR-21 FLuc: raises the signal of a miR-21 reporter; HeLa miR-21 FLuc reporter, luciferase, 48 h; Potency, µM (highest dose often 38.3 µM), without a hit: top-dose reporter change, positive = more light; 340,000 tested, under 10 active; active = well fitted rising curve with a large enough effect; inconclusive = small, poorly fitted or top-dose-only effect; inactive = no such curve, though single readings can be large or run the other way;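 further: % of control where 0% means no effect; miR-21 action dims this reporter so a rising signal means less miR-21 action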
#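 HeLa miR-21-FLuc reporter line, endogenous miR-21; 2000 cells/well in DMEM/10% FBS; compound titration up to ~40uM final, 48 h, 37 degree Celsius; luciferase detection reagent, 15 min lysis, CCD luminescence.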
# Numbers without * were called inactive; ? = inconclusive; . = no result given; & = joins results of further samples. Some of the compounds tested (hit frequency here may not be typical).
structure	GLA inh pH 4.5	Rango dissoc inh	Rango-impB inh	miR-21 FLuc
COc1ccc(-n2nc3c(N4CCC(C(=O)NCC(C)c5ccccc5)CC4)nnc(C)c3c2C)cc1 (stereo not given)	.	12.2%	2.4%	10.7%
O=C(Nc1ccc(Cl)cc1)c1ccsn1	-1.1	-2.6%	6.4%	-36.2%
OCCn1c(-c2ccc(F)cc2)csc1=Nc1ccccc1	-0.1	11.5%	-5.0%	-21.5%
CCc1cccc(C)c1NC(=S)NCc1ccccc1	-2.9	11.6%	1.0%	-2.5%
COC(=O)c1ccc(C(=O)OC)c(NC(=O)COc2ccccc2OC)c1	-7.6	-8.4%	-1.0%	-0.6%
CCn1c(NCCc2ccc(OC)c(OC)c2)nc2c1c(=O)n(C)c(=O)n2C	5.1	14.6%	0.0%	4.9%
COc1ccc(C(=O)N/N=C/C2CC=CCC2)cc1OC (stereo not given)	-22.0	22.1%	-3.2%	11.9%
CC(C)C(=O)NC(=S)Nc1ccc(CN2CCOCC2)cc1	5.9	-11.5%	0.1%	-1.2%
C=CCn1c(C)cc(C(=O)CSc2nnc3n(CCC)c(=O)c4ccccc4n23)c1C	.	-4.5%	-0.8%	.
Cc1cccc(Sc2nc(-c3ccccc3)ncc2C(=O)O)c1	1.1	8.0%	1.0%	-12.5%
Cn1c(-c2ccc(F)cc2)cnc1SCC(=O)NCc1ccco1	5.4	-3.4%	3.3%	-12.6%
O=C(CCS(=O)(=O)c1cc2c(cc1Cl)NC(=O)CO2)NCCc1ccccc1	.	?	1.3%	-5.7%&-4.8%
O=C(CSc1nnc(Cc2ccccc2)o1)Nc1cccc(F)c1	.	7.6%	1.3%	-3.2%
O=c1c2sc3nc(N4CCOCC4)c4c(c3c2ncn1CCc1ccccc1)CCCC4	11.0	-11.9%	-3.3%	1.9%
CCC/C(O)=C1\C(=O)CC(C)(C)CC1=NCCO	-0.7	9.3%	-0.4%	-0.8%
Oc1ccc(N=Nc2ccc(Br)cc2)c(O)c1	-3.3	19.1%	-2.7%	-26.3%
O=C(O)c1ccc(/C=N/NC(=S)NCCN2CCOCC2)cc1	-2.9	7.9%	0.8%	0.5%
c1csc(Cc2nn3c(-c4ccncc4)nnc3s2)c1	4.6	-3.3%	-1.9%	12.3%
C[C@H](NC(=O)c1nc[nH]c1C(=O)N1CCN(c2ccccc2)CC1)C(=O)OC(C)(C)C	5.2	?	?	5.4%
COc1ccc(-c2cn[nH]c2-c2ccc(OCC(=O)NN)cc2O)cc1	.	-3.6%	-5.2%	19.4%
O=[N+]([O-])c1cc(-c2nnc(C34CC5CC(CC(C5)C3)C4)o2)cc([N+](=O)[O-])c1	5.1	5.6%	0.4%	-1.5%
O=C(O)c1cn(CCOc2ccccc2Cl)c2ccccc12	-11.2	2.1%	1.8%	-46.8%
O=C(Nc1ccc(N2CCN(C(=O)c3ccccc3)CC2)c(Cl)c1)c1ccco1	0.5	-12.1%	-0.1%	20.9%
O=C(COC(=O)c1cccnc1Cl)NC1CCCc2ccccc21 (stereo not given)	.	23.7%	7.5%	.
COc1nc(N)c(S(=O)(=O)c2ccccc2)cc1C#N	5.3	?	?	-5.4%
Cc1cccc(N2CCN(C(=O)C(C)C)CC2)c1C	3.9	-5.9%	-0.7%	-5.6%
O=C(COC(=O)[C@H](Cc1ccccc1)NC(=O)c1cccs1)Nc1c(Cl)cccc1Cl	-9.0	-13.0%	0.1%	-8.1%
Cc1ccc(CNC(=O)c2cc(S(=O)(=O)N3CCCCC3)ccc2N2CCOCC2)cc1	.	6.1%	-0.7%	.
COc1ccc(Cl)c(Cn2c(NCC(C)O)nc3c2c(=O)n(C)c(=O)n3C)c1 (stereo not given)	0.1	2.4%	0.7%	-6.1%
CNC(=O)C1CCN(S(=O)(=O)c2c(C)noc2/C=C/c2ccc(C)cc2)CC1	.	0.3%	-1.5%	-1.8%
COc1ccc(/C=N/NC(=O)Cc2cc(OC)c(OC)cc2[N+](=O)[O-])cc1	2.9	0.4%	0.2%	-5.8%
COCCNC(=O)CCCC(=O)NCCOC	7.5	1.7%	0.6%	-0.9%
COc1cc([N+](=O)[O-])cc(/C=N/NC(=O)Cn2cncn2)c1O	-6.8	0.3%	-2.0%	-8.5%
COc1ccc(N(C)C(=O)c2cc3c(s2)-c2ccccc2OC3)c(OC)c1	.	-9.2%	-0.2%	-0.1%
COC(=O)C1=C(C)N(C)C(=S)NC1c1ccccc1 (stereo not given)	2.5	3.5%	-5.0%	0.1%
Cc1ccc(-c2nn(-c3ccccc3)cc2/C=N/O)cc1	.	0.4%	-1.5%	-22.2%
C=CCN(CC(=O)Nc1cccnc1)S(=O)(=O)c1ccc(Cl)cc1	.	0.7%	2.0%	.
COc1cc(-n2c(=O)c3ccccc3n(Cc3cccnc3)c2=O)cc(OC)c1OC	.	1.7%	-1.4%	.
COc1cc(NC(=O)c2ccccc2)c(OC)cc1Cl	3.1	-6.8%	-3.5%	-6.8%
Cc1ccccc1OCC(=O)NN1C(=O)C2C3C=CC(O3)C2C1=O (stereo not given)	1.5	-4.8%	7.7%	-0.6%
Cn1nc(C(C)(C)C)cc1NC(=O)Nc1cc(Cl)cc(Cl)c1	-14.2	3.8%	3.5%	29.7%
COc1ccc(C(C(=O)NC2CCCCC2)N(Cc2cccnc2)C(=O)c2snc(C(N)=O)c2N)cc1 (stereo not given)	.	1.6%	-0.6%	-1.6%
COc1cccc(NC(=O)C(C)(C)C)c1	.	3.6%	2.8%	.
CC1CC(CC(C)C(=O)Nc2nncs2)C(=O)O1 (stereo not given)	-8.3	10.5%	-5.5%	1.6%
COc1ccc(C)cc1S(=O)(=O)N1CCCC(N2CCOCC2)C1 (stereo not given)	.	-7.6%	5.3%	-0.4%
O=C(N/N=C/C=C/c1ccccc1)C(O)c1ccccc1 (stereo not given)	.	-12.6%	0.1%	.
O=C(N/N=C/C=C/c1ccc2c(c1)OCO2)c1ccc([N+](=O)[O-])cc1	-7.0	-5.9%	2.8%	-2.0%
CCCc1nnc(NC(=O)Cn2c(=O)sc3ccccc32)s1	1.8	-6.5%	1.4%	-14.1%
CCOCCCNC(=S)N1C2CCC1CC(NC(=O)NC13CC4CC(CC(C4)C1)C3)C2 (stereo not given)	-9.9	1.1%	-1.0%	-2.8%
COCCN(CCOC)S(=O)(=O)c1ccc(C(=O)Nc2nnc(C)o2)cc1	4.0	3.1%	-1.0%	-6.3%
CCn1c(NN)nc2sc3c(c2c1=O)CCC3	1.0	-10.0%	?	-0.4%
CCOCCn1c(CN2CCOCC2)nc2c1c(=O)[nH]c(=O)n2C	6.2	-7.2%	0.7%	-7.5%
CC(=O)C1=C(C)NC(SCC(=O)c2ccc(-c3ccccc3)cc2)=C(C#N)C1c1cccnc1 (stereo not given)	2.4	.	.	-15.4%
Cc1ccc(-c2csc(=Nc3cccnc3)n2CCCn2ccnc2)cc1C	0.0	-13.5%	-2.3%	?
CCOC(=O)C1CCN(C(=O)COC(=O)CSc2ccccc2C)CC1	.	13.3%	?	.
COC(=O)C(NS(=O)(=O)c1ccc(C)cc1)c1ccccc1 (stereo not given)	-2.7	6.2%	2.7%	3.5%

# Continuation.
structure	GLA inh pH 4.5	Rango dissoc inh	Rango-impB inh	miR-21 FLuc
CCOC(=O)C(=CN=C(N)Nc1nc2ccccc2o1)C(=O)OCC	11.1	1.4%	3.6%	-33.1%
COCCNC(=O)c1ccccc1NC(=O)c1ccccc1SC	2.6	0.5%	2.6%	-5.7%
Cc1ccc(Oc2nc3ccccc3n3cccc23)cc1	1.3	-6.7%	0.3%	2.4%
Cc1cccc(C(=O)NCC(=O)OCC(=O)N(C)CC(=O)Nc2ccccc2Cl)c1	.	0.6%	0.1%	.
Cc1[nH]c(=O)c(C#N)c2c1CSC(C)(C)C2	1.6	8.4%	-0.1%	-11.6%
CCCS(=O)(=O)N1CCN(c2ccccc2F)CC1	19.5	-8.2%	-0.4%	-1.8%
CC(Oc1ccc2c(-c3ccccc3)cc(=O)oc2c1)C(=O)N[C@H](Cc1c[nH]c2ccccc12)C(=O)O (stereo not given in full)	.	-7.1%	-0.6%	-4.4%
O=C(Nc1cccc2nsnc12)C1CC(=O)N(c2ccccc2)C1 (stereo not given)	-5.7	-14.4%	0.1%	-8.8%
O=C(N/N=C/c1ccc2cccc(OCc3ccccc3)c2n1)c1ccc(Cl)cc1	-4.9	6.9%	7.2%	-3.1%
COc1cccc(OC)c1C(=O)Nc1cccc(C(C)=O)c1	8.0	-6.0%	0.0%	-7.9%
CCN(CC)C(=O)C(=O)N/N=C/c1cccc(Br)c1	1.3	-0.2%	-2.1%	-1.7%
Cc1cccc(NC(=O)CCC(=O)Nc2nnc(C(F)(F)F)s2)c1	3.4	-5.6%	-0.5%	3.8%
CC12CCC(C(=O)N3CCN(C(c4ccccc4)c4ccccc4)CC3)(OC1=O)C2(C)C (stereo not given)	-3.1	-5.1%	-2.4%	-3.3%
COc1ccc(C(=O)Nc2cccc(C(=O)O)c2)cc1S(=O)(=O)N1CCCC1	.	-10.0%	0.5%	-9.8%
CCCCNC(=S)N1CCN(c2nc3ccccc3s2)CC1	-1.4	6.6%	0.0%	-1.3%
CC(Cc1ccccc1)C(=O)NCc1ccccn1 (stereo not given)	-5.8&2.6	-0.6%	-0.9%	-6.7%
CN(C)CCNCc1ccccc1OC1CCCC1	10.5	4.2%	-1.3%	-4.7%
CC(=O)Cc1nsc(NC(=O)c2ccc(-c3ccccc3Cl)o2)n1	-11.7	-5.3%	0.3%	-24.0%
Cc1nc(SCC#N)c2c(C)c(C)sc2n1	6.8	-10.4%	-1.4%	1.1%
COc1cnn(C(C)(C)C)c(=O)c1Cl	8.1	-15.9%	-2.1%	0.5%
COc1ccc(N2CCN(C(CNC(=O)C(C)(C)C)c3cccnc3)CC2)cc1 (stereo not given)	-2.8	-1.5%	4.7%	0.0%
CCOC(=O)CNC(=S)n1ncnc1N	0.0	-14.0%	?	-1.5%
COC(=O)/C=C/C(=O)Nc1cccc(C(F)(F)F)c1	-0.5	38.1%	-2.7%	10.5%
C/C=C/c1ccc(OCC(=O)Nc2cc(OC)c(OC)c(OC)c2)c(OC)c1	-3.1	10.5%	-4.2%	17.4%

# Sorted by molar mass (descending): 3 of the compounds above.
structure	GLA inh pH 4.5	Rango dissoc inh	Rango-impB inh	miR-21 FLuc
C/C=C/c1ccc(OCC(=O)Nc2cc(OC)c(OC)c(OC)c2)c(OC)c1	-3.1	10.5%	-4.2%	17.4%
CCOC(=O)CNC(=S)n1ncnc1N	0.0	-14.0%	?	-1.5%
COc1cnn(C(C)(C)C)c(=O)c1Cl	8.1	-15.9%	-2.1%	0.5%

# Further compounds:
structure	GLA inh pH 4.5	Rango dissoc inh	Rango-impB inh	miR-21 FLuc
CC(=O)c1c(C)[nH]c(C(=O)Nc2ccc(F)cc2F)c1C	.	-12.2%	0.1%	-41.7%
CSc1nsc(SC)c1C(=O)Nc1ccc(C)cc1	11.3	-9.2%	-1.4%	-19.9%
CCCCCn1c(Sc2ncccn2)nc2c1c(=O)[nH]c(=O)n2C	-2.0	7.3%	1.6%	-12.1%
CCCCOc1ccc(C(=O)N/C(=C\c2cccc([N+](=O)[O-])c2)C(=O)OCc2ccco2)cc1	-0.7	2.1%	5.3%	-4.5%
CC(C)/C=N/Nc1nc2c(c(=O)n(C)c(=O)n2C)n1C	-5.4	17.2%	?	2.0%
CC(C)=C(NC(=O)c1ccccc1)C(=O)N1CCOCC1	10.1	66.0%	-0.6%	0.4%
CC1CCCc2sc3nc(N4CCN(CCO)CC4)n4ncnc4c3c21 (stereo not given)	-3.5	-4.9%	-0.6%	-47.9%
NNC(=O)c1ccc(COc2ccc3ccccc3c2)o1	3.3	7.2%	2.8%	-28.7%
